FGF22 binding: binders of human FGF22 protein, primary screen, FGF22 synaptogenesis inhibitor project, biophysical, thermal shift, single point | Fibroblast growth factor 22 (Homo sapiens), Q9HCT0 | recombinant FGF22 thermal shift, SYPRO orange fluorescence; percent of sucrose octasulfate shift, DMSO zero | calls only at 9.99 µM | hit rate 1.5% among 340,000;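 active = melting point raised past a set limit in the mean and every replicate; three in four hits are not shown here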
Target sequence (Q9HCT0 whole entry, looked up): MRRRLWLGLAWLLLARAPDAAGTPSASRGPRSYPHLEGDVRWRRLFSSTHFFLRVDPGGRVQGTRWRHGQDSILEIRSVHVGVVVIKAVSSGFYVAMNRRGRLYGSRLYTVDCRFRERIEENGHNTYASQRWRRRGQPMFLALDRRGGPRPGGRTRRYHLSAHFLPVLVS
rRNA inh HTS: reduced GFP signal of wild-type E. coli, primary screen, bacterial rRNA inhibitor project, GFP/RFP fluorescence, OD600, single point; E. coli WT GFP vs humanized-ribosome RFP mutants, 24 h; stronger effect = lower value; DMSO median 0, no signal -100; GFP signal change (wild-type ribosome), % (no concentration beside the values); hit rate 1.6% among 350,000; AID 720706, 2013;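 active = significant combined selectivity score with lowered wild-type GFP, culture density cut under 30%, mutant RFP and density less affected; inactive = any of these conditions unmet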; note: one replicate is shown; some compounds called inactive have numbers as strong as hits
AF4-AF9 inh: inhibitors of AF4 peptide binding to AF9, primary screen, biochemical, AlphaScreen, biotin-AF4 peptide, FLAG-AF9, single point; inhibition, % at 10 µM; hit rate 0.47% among 350,000; AID 651704, 2012;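 active = every replicate reaching a set inhibition limit, whatever the replicate mean, cut at about 25% in these data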;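 note: 0% = plate neutral control median and 100% = total signal loss; the record names both 10 and 1 µM as test concentration; the first replicate is given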
Target sequence (P42568 whole entry, looked up): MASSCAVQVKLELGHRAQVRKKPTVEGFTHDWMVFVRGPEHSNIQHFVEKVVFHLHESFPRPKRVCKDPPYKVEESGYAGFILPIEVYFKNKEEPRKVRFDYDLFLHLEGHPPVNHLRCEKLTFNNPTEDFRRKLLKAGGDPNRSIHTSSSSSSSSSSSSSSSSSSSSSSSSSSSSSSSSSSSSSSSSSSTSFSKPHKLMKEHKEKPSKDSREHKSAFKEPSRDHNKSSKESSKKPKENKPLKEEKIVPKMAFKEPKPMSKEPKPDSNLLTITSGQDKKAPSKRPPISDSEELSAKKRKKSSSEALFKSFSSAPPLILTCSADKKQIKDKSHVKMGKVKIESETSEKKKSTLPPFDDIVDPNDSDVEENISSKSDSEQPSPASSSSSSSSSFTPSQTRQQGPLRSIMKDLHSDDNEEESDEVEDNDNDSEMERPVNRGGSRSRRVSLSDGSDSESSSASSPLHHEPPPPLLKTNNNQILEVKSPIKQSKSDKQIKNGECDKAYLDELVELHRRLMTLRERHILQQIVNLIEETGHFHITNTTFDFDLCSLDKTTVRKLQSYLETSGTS
rRNA inh HTS OD600: second read-out of rRNA inh HTS, no call of its own (marks repeat the call); OD600 change, %; measured here: OD600 growth;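 optical density of the mix in the first replicate; 0 = DMSO median and -100 = no signal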
rRNA inh HTS RFP: also measured in rRNA inh HTS; calls as there; RFP signal change, %; measured here: RFP humanized mutant strains;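 first replicate; 0 = DMSO median and -100 = no signal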
Starred values were filed as active, the others as inactive; i = inactive; + = active, no number; & = joins results of further samples; ! = not confirmed by another sample.

SMILES	FGF22 binding	rRNA inh HTS	rRNA inh HTS OD600	rRNA inh HTS RFP	AF4-AF9 inh
COc1cccc(C(=O)Nc2ccc3c(c2)OC[C@@H](C)N(CCc2ccccc2)C[C@H](C)[C@H](OC)CN(C)C3=O)c1	i	-6.2	-7.2	5.9	6.5
C[C@@H]1CN([C@@H](C)CO)C(=O)c2cc(C#CC3CCCCC3)cnc2O[C@@H]1CN(C)S(=O)(=O)c1cccc(F)c1	i	1.3	0.5	0.8	0.2
Cc1ccccc1-c1ccc([C@@H]2[C@H]3CN(C(=O)Nc4ccccc4)CCCCN3[C@H]2CO)cc1	i	-49.5	-66.7	-3.5	-4.0
Cc1ccc(S(=O)(=O)c2nc(/C=C/c3ccccc3)oc2N2CCC(C(N)=O)CC2)cc1	i	13.5	13.5	-0.5	-7.2
O=C(Nc1ccc(C(F)(F)F)cc1)N[C@@H]1CC[C@H](CCNC(=O)c2ccccc2F)O[C@@H]1CO	i	-6.4	-10.8	4.0	1.6
COc1ccccc1CCNC(=O)C1CC(=O)N(c2ccccc2F)C1 (centres undefined)	i	9.7	19.5	1.1	-3.5
CCN1[C@@H]2c3ccc(-c4ccccc4F)c(=O)n3C[C@H]1[C@H](CO)[C@H]2C(=O)NCc1ccccc1	i	-4.8	-6.8	-3.3	-1.9
Cc1noc(C)c1NC(=O)N(C)C[C@H]1Oc2ccc(NS(=O)(=O)c3ccccc3)cc2CC(=O)N([C@H](C)CO)C[C@H]1C	i	5.0	13.9	-0.8	-2.3
CC(C)(C)NC(=O)C(c1ccc(C#N)cc1)n1c(=O)c(-c2cc3ccccc3[nH]2)nc2ccccc21 (centres undefined)	i	20.9	13.5	2.8	-31.8
C[C@@H]1CN([C@H](C)CO)S(=O)(=O)c2ccc(C3=CCCCC3)cc2O[C@H]1CN(C)Cc1ccncc1	i	-30.4	-48.0	18.2	14.2
C[C@H]1CN([C@@H](C)CO)C(=O)c2cc(NS(=O)(=O)c3cccs3)ccc2O[C@@H]1CN(C)Cc1ccccc1	i	0.0	-1.4	0.8	-4.7
CC(=O)Nc1cccc(-c2ccnc3c2CC(C(=O)Nc2cccnc2)O3)c1 (centres undefined)	i	-2.1	-1.5	0.5	1.5
Cc1ccc(S(=O)(=O)Nc2ccc3c(c2)C(=O)N([C@@H](C)CO)C[C@@H](C)[C@@H](CN(C)S(=O)(=O)c2ccc(Cl)cc2)O3)cc1	i	-2.6	-10.4	0.4	4.0
CCc1cccc(C)c1NC(=O)COC(=O)CCn1c(C)csc1=O	i	13.8	10.3	5.1	3.7
CO[C@@H]1CN(C)C(=O)c2cc(NC(=O)C3CCC3)ccc2OC[C@@H](C)N(C(=O)CN(C)C)C[C@H]1C	i	-2.9	4.3	-1.6	1.4
Cc1ccccc1-c1ccc2c(c1)O[C@@H](CN(C)C(=O)Nc1ccc(C(F)(F)F)cc1)[C@H](C)CN([C@@H](C)CO)S2(=O)=O	i	1.8	3.2	3.1	0.0&-1.0
C[C@H](CO)N1C[C@H](C)[C@@H](CN(C)S(=O)(=O)c2ccccc2)Oc2ccc(NC(=O)Nc3ccc(F)cc3)cc2CC1=O	i	-7.3	-12.0	3.2	2.9
COc1ccc(S(=O)(=O)N(C)C[C@@H]2Oc3ncc(-c4ccncc4)cc3C(=O)N([C@H](C)CO)C[C@@H]2C)cc1	i	-1.8	1.4	1.9	-7.9
CC(C)CC1NC(=O)c2cc3ccccc3cc2-n2c1nc1ccc(Cl)cc1c2=O (centres undefined)	i	0.5	14.0	-2.6	1.1
C[C@@H]1CN([C@@H](C)CO)C(=O)c2cc(NC(=O)NC3CCCCC3)ccc2O[C@@H]1CN(C)S(=O)(=O)c1ccc(F)cc1	i	-0.1	-4.8	-1.9	-1.1
CCc1nc2ccc(C(=O)NC3CCN(Cc4ccccc4)CC3)cn2c1N(CC)CCOC	i	5.1	5.0	3.5	-0.1
COc1ccccc1CN1Cc2ccccc2Oc2ccccc2S1(=O)=O	i	-26.8*	-5.7*	2.3*	-3.3
C[C@@H]1CCCCO[C@@H](CN(C)C(=O)Nc2ccc(F)cc2)[C@@H](C)CN([C@@H](C)CO)C(=O)c2cc(NC(=O)Nc3ccc(C(F)(F)F)cc3)ccc2O1	i	-0.3	1.9	-0.2	-2.3
c1ccc2c(-c3cccc4nccn34)cncc2c1	i	8.7	17.1	2.6	-0.2
C[C@@H]1CN([C@@H](C)CO)S(=O)(=O)c2ccc(-c3cncnc3)cc2O[C@H]1CN(C)C(=O)NC1CCCC1	i	-0.6	2.4	-1.6	-0.6

(continued)
SMILES	FGF22 binding	rRNA inh HTS	rRNA inh HTS OD600	rRNA inh HTS RFP	AF4-AF9 inh
Cc1ccc(S(=O)(=O)Nc2ccc3c(c2)C(=O)N([C@H](C)CO)C[C@@H](C)[C@H](CN(C)C)OCCCC[C@H](C)O3)cc1	i	5.4	7.4	0.6	-9.3
CC(C)NC(=O)N[C@@H]1CC[C@H](CCNC(=O)C2CCOCC2)O[C@H]1CO	i	1.9	6.0	1.0	-2.0
C/C=C/c1ccc([C@@H]2[C@H](CO)N(C(=O)c3ccccn3)C23CN(CCC(F)(F)F)C3)cc1	i	1.2	3.8	-0.9	5.2
C[C@H](CO)N1C[C@H](C)[C@@H](CN(C)C(=O)Nc2cccc3ccccc23)Oc2ccc(NS(=O)(=O)c3cccs3)cc2C1=O	i	-1.9	-1.7	5.5	-0.1
COc1ccc(S(=O)(=O)N(C)C[C@@H]2OCCCC[C@@H](C)Oc3ccc(NS(=O)(=O)c4ccc(Cl)cc4)cc3C(=O)N([C@H](C)CO)C[C@@H]2C)cc1	i	1.5	7.3	0.9	-1.1
O=C(CNC(=O)OCc1ccccc1)NCC(=O)NC(Cc1c[nH]c2ccccc12)C(=O)O (centres undefined)	i	7.3	23.9	-1.6	4.6
COc1ccc(NC(=O)N2C[C@@H](O)COC[C@@H]3O[C@@H](CC(=O)NC4Cc5ccccc5C4)CC[C@H]32)cc1	i	-3.5	5.5	-6.8	-2.4
CN[C@H]1C[C@H]2c3[nH]c4ccc(-c5ccc(OC)cc5)cc4c3CCN2C(=O)[C@H]1[C@H](C)O	i	-14.9	-21.1	2.8	19.2
CCCC(=O)N1CC2(CCN(S(C)(=O)=O)CC2)c2c([nH]c3cc(OC)ccc23)[C@@H]1CO	i	4.1	13.7	-1.2	0.6
CNC[C@@H]1Oc2c(NC(=O)c3cnccn3)cccc2C(=O)N([C@@H](C)CO)C[C@H]1C	i	2.2	2.1	0.1	-5.3
C[C@@H]1CCCCO[C@@H](CN(C)S(=O)(=O)c2ccccc2)[C@@H](C)CN([C@H](C)CO)C(=O)c2cc(NS(=O)(=O)c3ccc(F)cc3)ccc2O1	+!	4.6&-5.6	14.2&-5.1	11.8&-1.9	-5.5&-2.1
COc1cccc(-c2ccc3n(c2=O)C[C@@H]2[C@@H](CO)[C@H](C(=O)NC4Cc5ccccc5C4)N[C@H]32)c1	i	-10.1	-16.9	0.4	5.2
C[C@@H]1CN([C@@H](C)CO)C(=O)c2cc(NC(=O)Nc3ccccc3)ccc2O[C@@H](C)CCCCO[C@H]1CN(C)S(=O)(=O)c1cccs1	i	-1.0	4.9	-0.5	0.5
C[C@H]1CN([C@@H](C)CO)C(=O)c2c(c3ccccc3n2C)-c2ccccc2CO[C@@H]1CN(C)S(=O)(=O)c1cccs1	i	0.7	-1.3	2.5	1.9
C[C@@H]1CN([C@@H](C)CO)C(=O)c2cccc(NC(=O)c3ccncc3)c2O[C@@H]1CN(C)Cc1ccccc1	i	3.2	2.2	2.0	-0.7
COc1ccc(OCC(=O)N/N=C/c2cccn2-c2cccc(C(=O)O)c2)cc1	i	11.2	0.7	-0.4	1.2
CCc1csc(N2[C@H](C#N)[C@H](c3ccc(C#Cc4ccc(F)cc4)cc3)[C@H]2CO)n1	i	-4.8	-35.5	14.9	-0.6
C[C@@H]1CN([C@H](C)CO)C(=O)c2cc(NS(=O)(=O)c3ccc(F)cc3)ccc2O[C@@H](C)CCCCO[C@@H]1CN(C)S(=O)(=O)c1cccs1	i	0.8	1.1	0.3	-4.6
Cc1ccc(S(=O)(=O)Nc2ccc3c(c2)C(=O)N([C@H](C)CO)C[C@H](C)[C@H](CN(C)Cc2ccc(C(=O)Nc4ccccc4N)cc2)OCCCC[C@@H](C)O3)cc1	i	2.1	11.3	-1.6	-1.7
C[C@H]1CN([C@@H](C)CO)C(=O)Cc2cc(NC(=O)Cc3ccccc3)ccc2O[C@H]1CN(C)CC1CCCCC1	i	1.0	-5.0	0.0	-1.6
Cc1cccc(C)c1-n1nnnc1C1c2ccccc2C(=O)N1CCCn1ccnc1 (centres undefined)	i	19.2	9.3	0.6	-3.1
CO[C@H]1CN(C)C(=O)c2cc(NC(=O)Nc3cccc(F)c3)ccc2OC[C@@H](C)N(C(C)=O)C[C@@H]1C	i	-5.2	-2.0	2.4	2.3
Cc1ccc(S(=O)(=O)N2C[C@H]3N(C(=O)OC(C)C)N(C(=O)OC(C)C)C[C@H](OC(=O)Nc4cccs4)[C@@]3(O)C2)cc1	i	2.1	5.2	2.0	4.0
C[C@@H]1CN([C@@H](C)CO)C(=O)c2cccc(NC(=O)C3CCCCC3)c2O[C@@H]1CN(C)Cc1ccc(C(=O)O)cc1	i	6.7	6.1	0.0	-1.7
COc1ccc(NC(=O)N[C@@H]2CC[C@H](CCNC(=O)Nc3cc(F)ccc3F)O[C@H]2CO)cc1	i	-5.9	-2.2	2.6	5.5

Continuation:
SMILES	FGF22 binding	rRNA inh HTS	rRNA inh HTS OD600	rRNA inh HTS RFP	AF4-AF9 inh
Cc1ccc(S(=O)(=O)N[C@H]2CC[C@@H](CCn3cc(-c4cccc(F)c4)nn3)O[C@H]2CO)cc1	i	-20.1	-21.5	0.5	1.0
O=C(C[C@@H]1C=C[C@H](NC(=O)C2CCC2)[C@H](CO)O1)NCC1CC1	i	0.2	0.8	-2.5	0.4
C[C@H](CO)N1C[C@H](C)[C@@H](CN(C)C(=O)NC2CCCC2)Oc2ncc(-c3ccncc3)cc2C1=O	i	2.5	-6.0	-2.0	0.5
COc1ccc2c3c(n(C)c2c1)[C@H](CO)N(C(=O)Nc1ccc(F)cc1)CC31CCN(Cc2cccc(F)c2)CC1	i	-9.8	-43.6	29.0	4.6
CC(C)NC(=O)N(C)C[C@@H]1Oc2ccc(N(C)C)cc2C(=O)N([C@H](C)CO)C[C@H]1C	i	2.5	8.3	-0.7	-3.4
O=C(CN1CCOCC1)N[C@H]1CC[C@@H](CCNC(=O)C2CCC2)O[C@H]1CO	i	0.8	5.2	-2.2	-2.1
O=C(c1ccc(F)cc1)N1CCCCN2[C@H](C1)[C@H](c1ccc(-c3ccccc3)cc1)[C@@H]2CO	i	-50.9	-68.2	-3.1	-1.3
C[C@H](O)C#Cc1ccc([C@@H]2[C@@H](CO)N3CCCCN(C(=O)c4ccncc4)C[C@@H]23)cc1	i	6.1	10.7	-2.8	-4.9
CC(=O)N(C)C[C@H]1Oc2ncc(-c3ccccc3C)cc2C(=O)N([C@H](C)CO)C[C@H]1C	i	2.0	2.1	-4.4	-2.1
CC(C)C[C@H]1COc2cccc(N3CCOCC3)c2S(=O)(=O)N1	i	9.8	3.3	3.1	0.3
COc1ccc(S(=O)(=O)Nc2cccc3c2O[C@@H](CN(C)Cc2ccc4c(c2)OCO4)[C@@H](C)CN([C@H](C)CO)C3=O)cc1	i	0.3	3.8	-0.8	-2.0
COc1ccccc1NC(=O)Nc1ccnn1C1CCN(C(=O)C2CCOC2)CC1 (centres undefined)	i	5.0	8.0	-0.3	0.3
O=C(NC[C@@H]1[C@@H](c2ccccc2)[C@H](CO)N1C(=O)C1CC1)NC1CCCC1	i	-2.2	2.6	0.0	-18.5

Some of the entries above, reformatted:
Every second line gives: FGF22 binding	rRNA inh HTS	rRNA inh HTS OD600	rRNA inh HTS RFP	AF4-AF9 inh
CC(C)NC(=O)N(C)C[C@@H]1Oc2ccc(N(C)C)cc2C(=O)N([C@H](C)CO)C[C@H]1C
 : i	2.5	8.3	-0.7	-3.4
O=C(C[C@@H]1C=C[C@H](NC(=O)C2CCC2)[C@H](CO)O1)NCC1CC1
 : i	0.2	0.8	-2.5	0.4
O=C(CN1CCOCC1)N[C@H]1CC[C@@H](CCNC(=O)C2CCC2)O[C@H]1CO
 : i	0.8	5.2	-2.2	-2.1

Random excerpt: four compounds from above, in no set order.
SMILES	FGF22 binding	rRNA inh HTS	rRNA inh HTS OD600	rRNA inh HTS RFP	AF4-AF9 inh
COc1ccc(S(=O)(=O)Nc2cccc3c2O[C@@H](CN(C)Cc2ccc4c(c2)OCO4)[C@@H](C)CN([C@H](C)CO)C3=O)cc1	i	0.3	3.8	-0.8	-2.0
O=C(CN1CCOCC1)N[C@H]1CC[C@@H](CCNC(=O)C2CCC2)O[C@H]1CO	i	0.8	5.2	-2.2	-2.1
Cc1ccc(S(=O)(=O)N[C@H]2CC[C@@H](CCn3cc(-c4cccc(F)c4)nn3)O[C@H]2CO)cc1	i	-20.1	-21.5	0.5	1.0
C[C@H](CO)N1C[C@H](C)[C@@H](CN(C)C(=O)NC2CCCC2)Oc2ncc(-c3ccncc3)cc2C1=O	i	2.5	-6.0	-2.0	0.5

Assay outcomes (PubChem BioAssay)

An excerpt; count on the stated rates, not on these rows.
